GLA inh pH 4.5 = inhibitors of human alpha-galactosidase A at pH 4.5 | P06280 | purified enzyme, 4-MU-alpha-Gal fluorescence, pH 4.5 | activity change, negative = inhibition, % at 105 µM | 230,000 tested, under 10 active; inconclusive = small, poorly fitted or top-dose-only inhibition, or a rising curve; inactive = flat fitted curve, though single readings scatter; no compound was filed as active;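 further: 0% = full activity with enzyme and -100% = basal without enzyme; dose as in the result columns while the protocol names 77 µM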
Target sequence (P06280 whole entry, looked up): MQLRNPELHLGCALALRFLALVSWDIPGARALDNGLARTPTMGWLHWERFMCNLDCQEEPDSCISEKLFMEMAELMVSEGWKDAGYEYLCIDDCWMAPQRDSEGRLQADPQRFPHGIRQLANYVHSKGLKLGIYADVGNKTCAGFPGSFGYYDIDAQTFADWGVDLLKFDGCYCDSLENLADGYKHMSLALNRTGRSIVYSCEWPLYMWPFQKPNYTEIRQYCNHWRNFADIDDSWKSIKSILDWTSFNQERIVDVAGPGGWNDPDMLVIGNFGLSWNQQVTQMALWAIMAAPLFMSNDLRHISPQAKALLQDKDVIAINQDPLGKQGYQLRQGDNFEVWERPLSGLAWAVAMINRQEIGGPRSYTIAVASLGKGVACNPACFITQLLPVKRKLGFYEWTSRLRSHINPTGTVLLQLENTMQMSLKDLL
Rango complex inh = Rango-importin beta binding inhibition; Rango CFP/YFP FRET sensor + importin beta, 45 min; AID 540263; Potency, µM (titrated, usually from 92.2 µM), for inactives: at the top dose inhibition of complex formation; 0.031% of 340,000 active; active = rising FRET ratio curve, often small or poorly fitted; inconclusive = mostly compound fluorescence or quenching in the first reads; inactive = flat curves in all reads;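 further: potency means the concentration at half of the fitted maximal effect; 0% = DMSO wells and 100% = buffer wells lacking importin beta; nearly all actives have a fitted effect of over 15% in size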
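FRET biosensor Rango (snurportin 1 IBB between N-terminal EYFP and C-terminal Cerulean), 50 nM in PBS/1 mM DTT/0.02% Tween-20/0.1% BSA, preincubated 5 min RT with compound; 0.125 microM importin beta added, 45 min RT, CFP/YFP FRET ratio read.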
miR-21 FLuc = raises the signal of a miR-21 reporter. Potency, µM (highest dose often 38.3 µM), without a hit: top-dose reporter change, positive = more light. 340,000 tested, under 10 active. HeLa miR-21 FLuc reporter, luciferase, 48 h; active = well fitted rising curve with a large enough effect; inconclusive = small, poorly fitted or top-dose-only effect; inactive = no such curve, though single readings can be large or run the other way;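 further: % of control where 0% means no effect; miR-21 action dims this reporter so a rising signal means less miR-21 action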
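HeLa miR-21-FLuc reporter line, endogenous miR-21; 2000 cells/well in DMEM/10% FBS; compound titration up to ~40uM final, 48 h, 37 degree Celsius; luciferase detection reagent, 15 min lysis, CCD luminescence.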
Rango dissoc inh = prevents RanGTP from dissociating the Rango-importin beta complex | Biochemical FRET Rango-importin beta, RanGTP-induced dissociation | Potency, µM (series often up to 46.1 µM), for inactives: at the top dose activity change, negative = inhibition | 0.071% of 340,000 active | O95149+P62826; active means falling FRET ratio curve, often poorly fitted, with flat reads before Ran was added; inconclusive means other falling curves, or compound fluorescence or quenching; inactive means flat or rising ratio curve;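 further: potency means the concentration at half of the fitted maximal effect; % of control where 0% means no effect; nearly all actives have a fitted effect of over 45% in size; -100% = wells without RanGTP and RCC1; the record marks most hits as doubtful in a second field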
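Two FRET readings bracket the reaction: one 5 min after compound meets Rango–importin beta, another 45 min after RanGTP-RCC1 (0.6 uM Ran, 0.2 uM RCC1, 2 mM GTP) is added. Only the second defines inhibition.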
* hit, by the source's call; ? = inconclusive; · = no result given. Only part of the results is shown; rates above refer to the full screens.

SMILES | GLA inh pH 4.5 | Rango complex inh | miR-21 FLuc | Rango dissoc inh
CN(Cc1nc(-c2cnccn2)no1)C1CC(C)(C)NC(C)(C)C1 | -6.9 | -0.4% | 1.3% | 0.8%
CC(=O)NC1CC2CCCC(C1)N2CC(=O)NCc1ccc(F)cc1 (stereo not drawn) | 2.7 | 2.7% | -2.4% | 2.1%
O=C(NNc1c(Cl)cccc1Cl)c1c(F)cccc1Cl | -0.7 | 0.1% | 0.1% | -15.4%
COc1ccc(NC(=O)N2CCCC(C(=O)NCCc3ccccc3)C2)cc1 (stereo not drawn) | · | -3.8% | -25.9% | -0.7%
COc1ccc(S(=O)(=O)N(CC(=O)NC2CCCC2)c2ccccc2OC)cc1 | · | 0.2% | 2.9% | -9.2%
COc1ccc(N2CCCn3c2nc2c3c(=O)n(Cc3ccccc3F)c(=O)n2C)c(OC)c1 | -8.5 | 5.0% | -1.8% | 2.0%
Cc1cccn2c(=O)cc(COC(=O)C(C)Oc3ccccc3)nc12 (stereo not drawn) | · | 1.2% | · | -9.0%
CCOC(=O)CCc1ccc(NC(=O)/C=C/c2ccc([N+](=O)[O-])o2)cc1 | · | -5.6% | · | 10.3µM*
CC(O)CNCCCCOc1ccc(OCc2ccccc2)cc1 (stereo not drawn) | 4.3 | 4.2% | -66.4% | 8.6%
CC(C)(C)c1ccc(C(=O)OCCNC(=O)c2c(Cl)nc3ccccn23)cc1 | -3.1 | -4.4% | -1.9% | -16.1%
COc1cc(C)nc(N(C)S(=O)(=O)c2ccccc2Cl)n1 | -8.6 | 3.3% | 2.0% | -2.9%
S=c1[nH]nc2ccccn12 | · | 0.6% | · | -14.7%
O=C1OC(NC(=O)c2ccccc2)C(N2CCOCC2)=C1Cl (stereo not drawn) | 3.2 | 0.2% | -0.4% | -2.3%
COc1ccc(NC(=O)CN(C)C(=O)c2cccc(S(=O)(=O)N3CCN(Cc4ccccc4)CC3)c2)cc1 | · | -1.6% | -4.7% | 3.3%
Cc1ccc(C)c(OCC(=O)Nc2nc3ccc([N+](=O)[O-])cc3s2)c1C | -1.2 | ? | -7.4% | 3.2%
COc1ccc(/C=C2\SC(=S)N(Cc3cccnc3)C2=O)cc1C | -4.3 | 0.4% | -4.6% | -0.7%
CC(C)OCCCNC(=O)c1ccc2c(c1)S(=O)(=O)c1ccccc1C2=O | · | 1.0% | -5.8% | -18.1%
COc1cccc(-n2c(SCC(=O)c3c[nH]c4ccccc34)nc3ccccc3c2=O)c1 | -2.6 | -0.4% | -6.5% | -10.7%
O=C(Cc1ccccc1)N/N=C/c1ccc2c(c1)OCO2 | -1.3 | ? | -37.8% | -8.6%
C[C@H](CO)N1C[C@H](C)[C@@H](CN(C)S(=O)(=O)c2ccccc2)Oc2ccc(NS(=O)(=O)c3cn(C)cn3)cc2C1=O | · | 3.0% | · | -9.2%
COc1cc(COc2ccc3c(C)c(CC(=O)O)c(=O)oc3c2C)cc(OC)c1OC | · | -0.1% | -11.2% | 10.8%
O=[N+]([O-])c1ccccc1S(=O)(=O)Nc1ccc(S(=O)(=O)N2CCCC2)cc1 | · | -0.3% | · | -3.6%
COc1cc(O)c(C(=O)O)c(CCc2ccccc2)c1 | · | 10.2% | · | -3.7%
CCOC(=O)N1CCN(C(=O)c2cc3c(s2)-c2c(C)cccc2OC3)CC1 | · | ? | 1.2% | -8.0%
CCOc1ccc(CCNC(=O)C2CSC3(C)CCC(=O)N23)cc1OCC (stereo not drawn) | · | 3.5% | -4.0% | -8.6%
Cc1ccc2nc3c(cc(C(=O)NC4CCS(=O)(=O)C4)n3Cc3ccccc3)c(=O)n2c1 (stereo not drawn) | · | ? | -4.1% | ?
Cn1c(CNS(=O)(=O)c2ccc(Cl)cc2)cc(=O)n(C)c1=O | · | 1.9% | -0.7% | 9.9%
Cc1cccc(N=C2NC(=O)/C(=C3/C(=O)N(C)c4ccccc43)S2)c1C | -9.6 | 1.0% | -1.5% | 1.4%
CCc1nc(-n2[nH]c(=O)c3ccccc3c2=O)c2c3c(sc2n1)CCCC3 | · | 3.8% | · | 4.9%
CCOc1ncccc1C(=O)OC(C)C(=O)NC1CCCCC1 (stereo not drawn) | · | -0.1% | · | -18.4%
OC1(c2cccc(C(F)(F)F)c2)CCNCC1 | 4.3 | 2.1% | -5.8% | 5.6%
CCN(CC)CCNC(=O)CNC(=O)c1nn(-c2ccc(OC)cc2)c(=O)c2ccccc12 | · | -3.8% | 2.8% | 2.2%
COc1ccc(C(=O)O)cc1S(=O)(=O)NCCN(C)C | 1.0 | -0.2% | -1.5% | -14.3%
O=C1CCN(C(=S)NCc2ccccc2)CC1 | 0.8 | 5.3% | -1.6% | 10.3%
COc1ccccc1NC(=S)NNC(=O)c1c(Cl)c(C)nn1C | 11.7 | 3.3% | -17.9% | 5.1%
COC(=O)c1ccc(C(=O)OC)c(NC(=O)CN(C)Cc2ccc(Cl)c(Cl)c2)c1 | 1.8 | 0.2% | -2.8% | -1.8%
COc1ccc(C(C(=O)NCCC(C)C)N(CCO)C(=O)c2snc(C(N)=O)c2N)cc1 (stereo not drawn) | · | -0.9% | -14.2% | -4.9%
CN(C)S(=O)(=O)c1cccc(-c2cn3cc(Cl)ccc3n2)c1 | 1.8 | 4.5% | -28.5% | -8.8%
Cc1ccc(NC(=O)Cn2c(O)c(N=NC(N)=S)c3ccccc32)cc1 | · | 2.9% | -1.8% | 2.6%
Cc1onc(-c2ccccc2)c1-c1nc2cc(Cl)ccc2c(=O)o1 | 1.0 | 3.1% | 11.2% | 9.4%
CC(C)C(=O)Nc1cccc(NC(=S)NC(=O)c2ccc3c(c2)OCO3)c1 | · | 0.0% | -2.9% | 0.6%
O=C(CCCc1nc(-c2ccccc2Cl)no1)N1CCOCC1 | 3.9 | 0.8% | -11.0% | -19.0%
Cc1ccc(C(=O)NC(=S)NCCN2CCOCC2)cc1 | 7.2 | 1.3% | -35.1% | 1.8%
CC[C@@H](C)[C@@H]1CN([C@@H](CN2CCC[C@H]2CN2C(N)=NC[C@H]2CC(C)C)C(C)C)C(=N)N1CCCC1CCCC1 | · | 0.5% | · | 13.0%
O=C(O)/C=C/C(=O)N1CCN(S(=O)(=O)c2cc(C(F)(F)F)ccc2Cl)CC1 | 4.0 | 2.7% | -12.7% | 23.8%

Given in CSV form: part of the list above
Molecule,GLA inh pH 4.5,Rango complex inh,miR-21 FLuc,Rango dissoc inh
CCOC(=O)N1CCN(C(=O)c2cc3c(s2)-c2c(C)cccc2OC3)CC1,·,?,1.2%,-8.0%
CCOc1ccc(CCNC(=O)C2CSC3(C)CCC(=O)N23)cc1OCC (stereo not drawn),·,3.5%,-4.0%,-8.6%
Cc1ccc2nc3c(cc(C(=O)NC4CCS(=O)(=O)C4)n3Cc3ccccc3)c(=O)n2c1 (stereo not drawn),·,?,-4.1%,?

Single values from above:
In GLA inh pH 4.5, Cc1ccc(C(=O)NC(=S)NCCN2CCOCC2)cc1 reads 7.2
In GLA inh pH 4.5, OC1(c2cccc(C(F)(F)F)c2)CCNCC1 reads 4.3
In miR-21 FLuc, O=C(O)/C=C/C(=O)N1CCN(S(=O)(=O)c2cc(C(F)(F)F)ccc2Cl)CC1 reads -12.7%
In Rango complex inh, COC(=O)c1ccc(C(=O)OC)c(NC(=O)CN(C)Cc2ccc(Cl)c(Cl)c2)c1 reads 0.2%

(continued)
SMILES | GLA inh pH 4.5 | Rango complex inh | miR-21 FLuc | Rango dissoc inh
COc1ccc(C(=O)OCN2C(=O)c3ccccc3C2=O)cc1 | -4.5 | 2.0% | 1.6% | 8.7%
COc1cc2cc(c1Cl)N(C)C(=O)CC(OC(=O)C(C)N(C)C(C)=O)C1(C)OC1C(C)C1CC(O)(NC(=O)O1)C(OC)C=CC=C(C)C2 (stereo not drawn) | · | -1.3% | · | -24.9%
NC(=O)CC(NC(=O)Cc1cccc2ccccc12)c1ccc(NCCCN2CCCC2=O)c([N+](=O)[O-])c1 (stereo not drawn) | · | 0.2% | -1.2% | 0.8%
Cc1ccc(NC(=S)Nc2cccc(-c3n[nH]c(=S)o3)c2)cc1 | 2.7 | 1.7% | -21.4% | 11.4%
Cc1ccc(S(=O)(=O)NCC(=O)NCC(=O)N2CCN(c3ncccn3)CC2)cc1C | 1.5 | 0.5% | 6.4% | 15.1%
O=C(COC(=O)c1nc(Cl)ccc1Cl)NCc1ccccc1 | 1.7 | -2.3% | 3.4% | 1.5%
O=C(Oc1ccc(OC(=O)c2ccco2)c(S(=O)(=O)c2ccc(Cl)cc2)c1)c1ccco1 | 1.1 | 1.1% | -7.8% | -6.1%
COc1ccc(-c2cc(-c3ccccc3)nc3ncnn23)cc1 | 9.5 | -1.8% | 22.6% | 11.1%
COc1cccc(C(=O)Nc2nnc(Cc3ccc(OC)c(OC)c3)s2)c1 | 8.0 | -0.6% | 8.8% | -0.3%
Cc1ccc(S(=O)(=O)N2CCC(C(=O)N/N=C/c3ccncc3)CC2)cc1 | -7.2 | 1.0% | 3.1% | 7.0%
Clc1ccccc1-c1nnc2sc(CCc3ccccc3)nn12 | -18.2 | 0.3% | -1.6% | -8.8%
CCOC(=O)N1CCN(CC(c2ccccc2)c2ccccc2)CC1 | · | 2.6% | -2.2% | ?
Fc1ccccc1C1c2[nH]c3ccccc3c2CCN1CCCn1cccn1 (stereo not drawn) | -13.8 | -1.9% | -1.4% | 4.8%
O=C(Cn1ncc(N2CCCC2)c(Cl)c1=O)c1ccc(Cl)cc1 | 7.8 | -1.4% | -57.5% | -7.2%
Cc1sc2ncn(CC(=O)N3CCN(c4ccc(F)cc4)CC3)c(=O)c2c1S(=O)(=O)N1CCOCC1 | · | -6.5% | -0.6% | -2.3%
Cc1ccccc1C(=O)NCc1ccncc1 | -0.8 | -2.1% | -0.2% | 7.4%
COc1ccc(CN(CCN(C)C)Cc2ccccc2)c(OC)c1 | -1.3 | -0.4% | 0.8% | 3.2%
Cc1cc(NC(=O)c2ccc3nc(C)sc3c2)no1 | -5.0 | -2.5% | -50.5% | 0.2%
COc1ccccc1C(=O)N/C(=C\c1ccc(Br)cc1)C(=O)NCCC(=O)O | 2.5 | 2.1% | -1.9% | -10.0%
O=C(COc1ccc(S(=O)(=O)Nc2ccccc2)cc1)NCc1cccnc1 | 0.5 | 0.7% | 2.1% | 4.1%
Cc1ccc(CCN2CC(C(=O)NCCN3CCOCC3)CC2=O)cc1 (stereo not drawn) | -5.1 | -2.4% | -0.6% | -9.8%
CC(=O)NS(=O)(=O)c1ccc(NC(=S)NC(=O)C(C)C)cc1 | 7.8 | -0.3% | -1.5% | 1.2%
COc1ccccc1N(CC(=O)NC(C)C)S(=O)(=O)c1cccs1 | -12.7 | -1.5% | -3.2% | -6.1%
CC(Sc1nc(N2CCCCC2)c2c(c1C#N)CCCC2)C(=O)O (stereo not drawn) | -8.8 | 2.6% | -5.9% | -7.3%
O=C(O)c1ccc(NC(=O)c2cccc(NC(=O)c3cccs3)c2)cc1 | · | -0.7% | 7.7% | ?
CN(Cc1ccccc1)C(=O)c1[nH]cnc1C(=O)NCc1ccccc1 | · | 0.3% | · | -0.4%
CC(=O)Nc1ccc(S(=O)(=O)N2CCN(S(=O)(=O)N3CCOCC3)CC2)cc1 | · | -1.1% | -0.1% | -0.5%
CCOC(=O)c1c(N2C(=O)CC(Sc3ccccc3C(=O)O)C2=O)sc2c1CCCC2 (stereo not drawn) | 4.7 | 0.4% | -2.8% | -4.5%
Cc1ccccc1-n1c(O)c(C=NC2CCS(=O)(=O)C2)c2ccccc2c1=O (stereo not drawn) | -5.8 | -4.2% | -0.1% | 1.4%
CC1=C(C(=O)NC2CCCc3c2cnn3-c2cc(F)cc(F)c2)OCCO1 (stereo not drawn) | · | -0.3% | -1.3% | -3.3%
CC1CCCC(C(=O)O)N1C(=O)CCS (stereo not drawn) | 4.0 | 4.4% | -0.3% | 0.2%

2 entries drawn at random from those above:
SMILES | GLA inh pH 4.5 | Rango complex inh | miR-21 FLuc | Rango dissoc inh
O=C(COc1ccc(S(=O)(=O)Nc2ccccc2)cc1)NCc1cccnc1 | 0.5 | 0.7% | 2.1% | 4.1%
COc1ccccc1C(=O)N/C(=C\c1ccc(Br)cc1)C(=O)NCCC(=O)O | 2.5 | 2.1% | -1.9% | -10.0%
